# Compound activity as filed in PubChem BioAssay.
# TRPML1 ag: human mucolipin-1 channel agonism; hit rate 0.12% among 410,000; TRPML1-expressing cells, Ca2+ dye fluorescence, FDSS; host cell line not named in the record; reference of the full effect not given here; Q9GZU1; activation, % (no concentration beside the values); in the data active = activation above about 50%; inconclusive = about 30% to 50%; inactive = below about 30%; further: 0% is about no effect; the text of the record puts the active cut at 80%
#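 Tetracycline-induced TRPML1-DL cells are seeded and incubated overnight before loading with a no-wash Ca2+ dye and quencher. Agonist activity is taken from the 110 s fluorescence read following compound pin-transfer on an FDSS, before EC80 54-4 challenge.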
# D2 PAM: human D2 receptor positive allosteric modulation | potentiation, % (no concentration beside the values) | DiscoveRx D2 beta-arrestin cells, luminescence, 90 min; 100% = 57 uM dopamine signal | AID 624464 | hit rate 0.23% among 360,000; active = potentiation of 50% or more; inconclusive = 30% to 50%; inactive = 30% or less;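 further: compound concentration not given in the record; tested on top of an EC20 dose of dopamine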
#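 PathHunter D2 cells, attached overnight at 37 deg C, received compound in DMSO plus dopamine at EC20 (50 nM final) for 90 min at 37 deg C. Beta-arrestin recruitment was read as luminescence after 1 h with detection reagent at ambient temperature.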
# CtBP-E1A inh: CtBP/E1A binding inhibition; hit rate 0.49% among 340,000; activity change, % (no concentration beside the values); AlphaScreen GST-E1A/His-CtBP binding, 1536-well; active compounds read low; control for the full effect not named in the record; AID 651724; in the data active means activity change below about -65%; inconclusive means about -30% to -65%; inactive means above about -30%; further: on the % scale 0 is the no-effect control and ±100 the full control effect
#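 Homogeneous bead-based format: GST-tagged E1A captured on glutathione donor beads, His-tagged CtBP on nickel acceptor beads; compounds precede bead addition by 2 h at 37 °C.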
# Six1-Eya2 inh: Six1/Eya2 interaction inhibition | AlphaScreen GST-Six1/His-Eya2 binding, biochemical; active compounds read low; control for the full effect not named in the record | hit rate 0.56% among 360,000 | activity change, % (no concentration beside the values) | AID 651725; in the data active = activity change below about -65%; inconclusive = about -30% to -65%; inactive = above about -30%; further: on the % scale 0 is the no-effect control and ±100 the full control effect
#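 AlphaScreen with GST-Six1 and His-Eya2 (5X mix: 250 nM and 500 nM), glutathione donor and nickel acceptor beads; buffer 50 mM Tris pH 8.0, 300 mM NaCl, 1 mM TCEP; 1 h at 37 C in the dark.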
# PINK1 expr mod: changes PINK1 expression. PINK1 immunofluorescence, high-content cytometry, 24 h. Potency, µM (series often up to 76.6 µM), for inactives: at the top dose activation (PINK1 increase), usual class: activators. hit rate 0.2% among 410,000. AID 624263; active = well fitted activation curve with a large enough effect; inconclusive = small, poorly fitted or top-dose-only effect; inactive = flat fitted curve, though single readings scatter; cell line not stated here;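 further: potency means the concentration at half of the fitted maximal effect; % of control where 0% means no effect; nearly all actives have a fitted effect of over 65% in size; a mitochondrial uncoupler was the plate control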
#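 Decision-based qHTS: stable cells, 24 h exposure to five compound concentrations, CCCP as control. Fixed cells stained for PINK1 plus nuclear, mitochondrial and cell markers, cytometer read.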
# D2 ag: agonists of human D2 dopamine receptor (beta-arrestin); P14416; DiscoveRx PathHunter D2 beta-arrestin, luminescence, 90 min; 100% = 57 uM dopamine signal; activation, % (no concentration beside the values); hit rate 0.084% among 360,000; AID 624465; in the data active = activation above about 40%; inconclusive = about 15% to 40%; inactive = below about 15%; further: compound concentration not given in the record; the text of the record calls up to 30% inactive
#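 Agonist mode: compounds alone added to overnight-plated D2 PathHunter cells for 90 min at 37 C, with 57 uM final dopamine (EC100) defining full response. Beta-arrestin recruitment detected by chemiluminescent reagent, read after 1 h at ambient temperature.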
# Numbers without * were called inactive; ? = inconclusive; / = no result given.
# Codes: A = TRPML1 ag; B = D2 PAM; C = CtBP-E1A inh; D = Six1-Eya2 inh; E = PINK1 expr mod; F = D2 ag
(1) O=C(O)C1C2C=CC(C2)C1C(=O)NCCc1cccc(Cl)c1 (configuration not stated)
  A: 0.5; B: 7.7; C: 6.3; D: 3.9; E: -0.1%; F: -2.2

(2) COc1ccc(CC(=O)Nc2cc(=O)n(C)c(=O)n2C)cc1
  A: -0.2; B: -2.1; C: -1.6; D: -1.1; E: 2.5%; F: -2.3

(3) Cc1ccc2oc3c(c(=O)c2c1)C(c1cccc(Br)c1)N(Cc1ccco1)C3=O (configuration not stated)
  A: -0.5; B: -3.1; C: 1.7; D: 6.6; E: ?; F: 2.2

(4) CCOC(=O)c1ccccc1CN1C(=O)c2ccccc2S1(=O)=O
  A: 0.4; B: -8.7; C: 5.7; D: 15.2; E: 1.5%; F: -3.0

(5) COc1cc(C(C)=O)ccc1Oc1cnccn1
  A: 0.4; B: -2.7; C: -5.5; D: -2.2; E: 1.6%; F: -3.7

(6) O=C(c1cccs1)n1cc(C(=S)N2CCOCC2)c2ccccc21
  A: 0.6; B: -7.6; C: -9.9; D: -12.7; E: /; F: -1.6

(7) Cc1ccc(S(=O)(=O)Nc2ccc(-n3cnnn3)cc2)c(C)c1
  A: -1.2; B: 8.0; C: /; D: -0.1; E: 1.6%; F: 0.2

(8) NC(=S)N/N=C/c1ccccc1OCc1cccc(Cl)c1
  A: 2.1; B: -5.2; C: -11.7; D: -20.8; E: -0.7%; F: -3.8

(9) C/C(=N\NC(=O)c1cccc(Cl)c1)c1cccc(NC(=O)c2ccco2)c1
  A: 0.0; B: -16.4; C: -13.1; D: -16.7; E: 0.1%; F: -3.9

# Some of these compounds in order of length of the SMILES, ascending.
# Codes: A = TRPML1 ag; B = D2 PAM; C = CtBP-E1A inh; D = Six1-Eya2 inh; E = PINK1 expr mod; F = D2 ag
(5) COc1cc(C(C)=O)ccc1Oc1cnccn1
  A: 0.4; B: -2.7; C: -5.5; D: -2.2; E: 1.6%; F: -3.7

(8) NC(=S)N/N=C/c1ccccc1OCc1cccc(Cl)c1
  A: 2.1; B: -5.2; C: -11.7; D: -20.8; E: -0.7%; F: -3.8

(2) COc1ccc(CC(=O)Nc2cc(=O)n(C)c(=O)n2C)cc1
  A: -0.2; B: -2.1; C: -1.6; D: -1.1; E: 2.5%; F: -2.3

(1) O=C(O)C1C2C=CC(C2)C1C(=O)NCCc1cccc(Cl)c1 (configuration not stated)
  A: 0.5; B: 7.7; C: 6.3; D: 3.9; E: -0.1%; F: -2.2

(7) Cc1ccc(S(=O)(=O)Nc2ccc(-n3cnnn3)cc2)c(C)c1
  A: -1.2; B: 8.0; C: /; D: -0.1; E: 1.6%; F: 0.2

(9) C/C(=N\NC(=O)c1cccc(Cl)c1)c1cccc(NC(=O)c2ccco2)c1
  A: 0.0; B: -16.4; C: -13.1; D: -16.7; E: 0.1%; F: -3.9

(3) Cc1ccc2oc3c(c(=O)c2c1)C(c1cccc(Br)c1)N(Cc1ccco1)C3=O (configuration not stated)
  A: -0.5; B: -3.1; C: 1.7; D: 6.6; E: ?; F: 2.2
